# StopGo FLuc – lowers the firefly signal of an FMDV 2A StopGo reporter. HEK cells with a luciferase reporter of 2A StopGo recoding. Potency, µM (titrated, usually from 57.5 µM), without a hit: at the highest dose signal change, negative = less light. 120,000 tested, 0.23% active. AID 1745856; active = well fitted falling curve with a large enough effect; inconclusive = small, poorly fitted or top-dose-only effect; inactive = no such curve, though single readings can be large or run the other way; also: nearly all actives have a fitted effect of over 60% in size; overnight with compound
# StopGo RLuc – lowers the Renilla signal of an FMDV 2A StopGo reporter. HEK cells with a luciferase reporter of 2A StopGo recoding. Potency, µM (series often up to 57.5 µM), for inactives: at the highest dose signal change, negative = less light. 120,000 tested, 0.32% active. AID 1745857; active means well fitted falling curve with a large enough effect; inconclusive means small, poorly fitted or top-dose-only effect; inactive means no such curve, though single readings can be large or run the other way; also: nearly all actives have a fitted effect of over 55% in size; overnight with compound
# * = called active by the depositor; ? = inconclusive; [ ] = remark or other dose. % is scaled to controls: 0 for no effect and ±100 for the full control effect; potency is read from the fitted curve at half-maximal effect. Only part of the results is shown; the hit share may differ from the screen's.
SMILES,StopGo FLuc,StopGo RLuc
Cc1nn(CCC(=O)Nc2cc(F)ccc2F)c(=O)c2nn(-c3ccccc3)c(C)c12,-13.9%,-8.8%
CC(Sc1nc2cc(Cl)ccc2s1)C(=O)NC1CCCC1 (centres undefined),7.2%,15.0%
O=S(=O)(c1c(Cl)cccc1Cl)N1CCCC1c1nnc2ccccn12 (centres undefined),-4.2%,-2.1%
Cc1ccc(-c2nnc(Nc3ccc(F)cc3)c3ccccc23)cc1S(=O)(=O)N1CCN(C)CC1,-11.7%,-2.3%
O=C(OCc1nc2ccccc2o1)c1c(F)cccc1F,-0.9%,-4.2%
CCOC(=O)C(C)NC(=O)c1cc(OC)c(OC)c(OC)c1 (centres undefined),-6.0%,0.7%
Cc1ccc(CNC(=O)Cc2c[nH]c3ccccc23)s1,130.0%[activator],33.8%[activator]
O=C(c1cccc(Cl)c1)N1CCN(CCc2ccccn2)CC1,-13.5%,-14.9%
Cc1ccc(C)c(CN2C(=O)c3ccccc3S(=O)c3ccc(C(=O)NCc4ccccc4)cc32)c1 (centres undefined),-14.2%,4.6%
O=C(O)Cn1cc(-c2ccccc2)ncc1=O,6.4%,-1.6%
COc1ccc(-c2csc3ncnc(Nc4cc(Cl)ccc4OC)c23)cc1,0.0%,-10.1%
Cc1ccccc1NC(=O)CSC1=Nc2ccccc2C2=NC(Cc3ccccc3)C(=O)N12 (centres undefined),-7.7%,-5.3%

# In the list so far, 2 contain an aryl methoxy group:
SMILES,StopGo FLuc,StopGo RLuc
CCOC(=O)C(C)NC(=O)c1cc(OC)c(OC)c(OC)c1 (centres undefined),-6.0%,0.7%
COc1ccc(-c2csc3ncnc(Nc4cc(Cl)ccc4OC)c23)cc1,0.0%,-10.1%

# (continued)
SMILES,StopGo FLuc,StopGo RLuc
CC(Sc1cc(C(=O)NC2CC2)c2ccccc2n1)C(=O)N1CCCC1 (centres undefined),11.8%,10.5%
COc1cc(OC)c(C(=O)Nc2nnc(C)s2)cc1OC,19.0%,7.6%
COc1ccc(CNC(=O)C2CCN(S(=O)(=O)c3cccc4nonc34)CC2)cc1OC,-16.6%,-10.5%
Cc1cc(NC(=O)COC(=O)C2(c3ccccc3F)CCCC2)no1,0.9%,5.1%
O=C(CSc1nnc(-c2ccncc2)n1-c1ccccc1)Nc1ccc(Br)cc1,-8.5%,-4.4%
CC(=O)N1CCC(N(Cc2ccc(C)o2)C(=O)Nc2cccc(C(F)(F)F)c2)CC1,-11.4%,27.9%
CCOC(=O)Cc1ccc(C(=O)/C=C/c2ccc(Cl)cc2)cc1,17.0%,-4.8%
O=C(Cn1c(=O)n(Cc2ccc(C(=O)NCc3ccc4c(c3)OCO4)cc2)c(=O)c2ccccc21)Nc1ccccc1F,-15.6%,-6.5%
COCCn1c(SCc2c(F)cccc2Cl)nc2c1c(=O)[nH]c(=O)n2C,20.9%,11.5%
O=C(Nc1ccc(SCc2cccnc2)cc1)c1ccc2c(c1)OCCCO2,?,17.8µM*
Cc1cc(C)c(OCC(=O)Nc2ccc3oc(=O)ccc3c2)c(C)c1,11.1%,-8.1%
COc1cc(Br)c(C=O)cc1OC,0.0%,40.6%[activator]
CC(C)CN1CCC(CN2CCOCC2)CC1,0.0%,12.1%
Cc1ccc(C(=O)CSc2nc(-c3ccccc3)nc3c2CCCC3)cc1,-4.3%,-11.1%
CCCCn1ccc2nc3ccn(-c4ncn[nH]4)c(=O)c3cc2c1=O,79.8%[activator],-0.3%
Cc1oc(-c2ccccc2Cl)nc1CS(=O)(=O)CC(=O)N1CCc2ccccc21,-0.7%,-6.7%
CCOCCCNC(=O)CCn1ccc2cc(S(=O)(=O)N3CCCCC3)ccc21,7.7%,109.1%[activator]
Cn1nccc1C(=O)NCc1ccc2c(c1)CCN2C(=O)c1ccccc1,-13.5%,-7.8%
CCCC(C)(C)NC(=O)Cc1ccc(OC)c(OC)c1,15.1%,2.0%
COc1ccc(-c2c(C)c3cc(OS(=O)(=O)c4ccc(C)cc4)ccc3oc2=O)cc1OC,0.4%,1.4%
Cc1occc(=O)c1OCc1noc(C(=O)NCc2ccccc2)n1,1.3%,-9.6%
CC(C)C(NC(=O)c1ccc(I)cc1)C(C)C,19.6%,30.3%[activator]
Cc1cc(O)c(C(c2ccccc2Cl)N2CCCCC2)c(=O)n1Cc1ccco1 (centres undefined),0.0%,-10.8%
O=C(C1CC(=O)N(c2cccc(C(F)(F)F)c2)C1)N1CCNCC1 (centres undefined),-2.9%,-0.8%
O=S(=O)(Cc1ccccc1)NCCNS(=O)(=O)Cc1ccccc1,4.7%,10.9%
Cc1ccccc1-n1nnnc1C1(Nc2ccccc2)CCCC1,11.5%,37.9%[activator]
CCOc1cc(C(c2c[nH]c3ccccc23)c2c[nH]c3ccccc23)ccc1O,21.0%,0.9%
CCOc1ccccc1CNC(=O)C1CCCN(c2nnc(C)c3c(C)n(-c4ccccc4)nc23)C1 (centres undefined),7.4%,36.6%[activator]
O=C(N/N=C/c1cccc(Br)c1)c1cccs1,222.4%[activator],37.2%
COc1cc(/C=C(/C#N)c2ccc(Cl)cc2)cc(OC)c1OC,2.9%,-3.5%
Cn1c(=O)c(C2=NN(C(=O)c3ccco3)C(c3ccco3)C2)c(-c2ccccc2)c2cc(Cl)ccc21 (centres undefined),?,?
Cc1ccc(C)c(N2CCN(c3ccc(NC(=O)c4cccs4)cc3C(=O)O)CC2)c1,-15.7%,6.0%
Cc1ccccc1NC(=O)CSc1ccc2c(c1)OCCCO2,0.0%,19.7%
CCN(Cc1nc2cc(Cl)ccc2c(=O)[nH]1)C(=O)CNC(=O)c1ccc(C(C)(C)C)cc1,?,29.6%
CC(C(=O)Nc1ccccc1C#N)N(C)Cc1ccccc1N1CCCCC1 (centres undefined),18.6%,15.6%
Cc1ccc(CNC(=O)C(C)n2nc(C)n3c(cc4sccc43)c2=O)cc1 (centres undefined),-13.2%,-1.7%

# In another format: results already given
Cc1ccc(C)c(N2CCN(c3ccc(NC(=O)c4cccs4)cc3C(=O)O)CC2)c1
  StopGo FLuc: -15.7% | StopGo RLuc: 6.0%
O=S(=O)(Cc1ccccc1)NCCNS(=O)(=O)Cc1ccccc1
  StopGo FLuc: 4.7% | StopGo RLuc: 10.9%

# Continued.
SMILES,StopGo FLuc,StopGo RLuc
Cc1cc(NCc2nc(-c3cccs3)no2)ccc1-n1cnnn1,40.4%[activator],29.8%
CCCCCC1CCC(c2ccc(-c3ccc(CC)cn3)cc2)CC1 (centres undefined),12.5%,-2.7%
CC(CC(=O)Nc1cccc(Br)c1)n1ccnc1 (centres undefined),12.2%,-2.0%
Cc1cc2oc(C(=O)Nc3ccc(S(=O)(=O)N4CCC(C)CC4)cc3)cc(=O)c2cc1C,-16.7%,-9.2%
CC(C)NC(=O)Cn1nc(N2CCN(c3ccccc3)CC2)ccc1=O,-9.5%,-12.3%
O=C(O)c1cccc(OCc2nnnn2-c2ccc(Cl)cc2)c1,5.0%,-4.6%
NC(=O)NNc1ccccc1,-11.2%[11.5 µM],-4.1%
COC(=O)c1cc2oc(C)cc2n1Cc1ccccc1C,0.8%,4.9%
CC(=O)N1CCc2c(sc(NC(=O)CSc3ccc(C)cc3)c2-c2nc3ccccc3s2)C1,-23.2%,-17.3%
CC1CCN(S(=O)(=O)c2ccc(C(=O)Nc3sc4c(c3C(N)=O)CC(C)(C)NC4(C)C)cc2)CC1,?,?
CCCCN(C(=O)CCn1c(=O)oc2ccccc21)c1ccccc1,-19.6%,14.8%
Cn1c(=NC(=O)c2ccc(S(=O)(=O)N3CCCC3)cc2)sc2cc(F)ccc21,6.0%,-0.5%
Clc1ccccc1-c1noc(CCc2nc3ccccc3[nH]2)n1,31.8%[activator],-6.9%
Cc1cc(OCC(=O)Nc2ccc3oc(-c4ccncc4)nc3c2)ccc1Cl,11.4%,6.2%
CCCNC(=O)NC(=O)CSc1cc(C)c2cccc(C)c2n1,67.5%[activator],40.3%[activator]
O=C(CCc1ncc(-c2ccc(Cl)cc2)o1)NCC1CCCO1 (centres undefined),16.1%,-4.0%
Cc1csc(N2CCCN(CC(=O)Nc3cc(C)on3)CC2)n1,-3.1%,-8.5%
CC(C)c1ccc(-c2nc3cc(N)ccc3o2)cc1,56.5%[activator],21.9%
Cc1ccccc1CN1CCN(S(=O)(=O)c2cn(C)nc2C)CC1,2.6%,0.9%
CC(=O)c1cn(CC(=O)Nc2ccccc2)c2ccccc12,-39.1%,?
CCOc1ccc(-c2cc(C)n3nc(C(=O)Nc4cc(Cl)ccc4O)cc3n2)cc1,-1.1%,-5.0%
CCCN1CCN(CCCNC(=O)C(CC)n2nc(C)n3c(cc4occc43)c2=O)CC1 (centres undefined),-22.2%,-16.4%
CCOC(=O)CSc1nc2c([nH]c3ccccc32)c(=O)n1-c1ccc(OCC)cc1,-23.3%,-15.5%
CCc1nnsc1C(=O)N(C)Cc1c(F)cccc1Cl,28.1%,37.0%[activator]

# Entries above with two or more sulfur atoms:
SMILES,StopGo FLuc,StopGo RLuc
CC(Sc1nc2cc(Cl)ccc2s1)C(=O)NC1CCCC1 (centres undefined),7.2%,15.0%
O=S(=O)(Cc1ccccc1)NCCNS(=O)(=O)Cc1ccccc1,4.7%,10.9%
CC(=O)N1CCc2c(sc(NC(=O)CSc3ccc(C)cc3)c2-c2nc3ccccc3s2)C1,-23.2%,-17.3%
CC1CCN(S(=O)(=O)c2ccc(C(=O)Nc3sc4c(c3C(N)=O)CC(C)(C)NC4(C)C)cc2)CC1,?,?
Cn1c(=NC(=O)c2ccc(S(=O)(=O)N3CCCC3)cc2)sc2cc(F)ccc21,6.0%,-0.5%

# The list goes on.
SMILES,StopGo FLuc,StopGo RLuc
CC(=O)N(c1nc(COc2ccccc2C(N)=O)cs1)c1ccc(C)cc1C,?,?
Cc1ccc(NC(=O)c2cn(-c3ccc4c(c3)OCCO4)nn2)cc1Cl,11.3%,4.7%
CC(C)COc1ccc(C(=O)Nc2cc(-c3ccccc3)no2)cc1,110.6%[activator],-19.5%
CCN1CCC[C@H]1CNC(=O)c1c(O)c(Cl)cc(Cl)c1OC,-20.4%,-16.5%
Cc1ccc(N(C(=O)c2ccc(S(=O)(=O)N3CCOCC3)cc2)C2C=CS(=O)(=O)C2)cc1C (centres undefined),-9.6%,-15.2%
COc1ccc(-c2cc(=O)n3[nH]c(C)c(-c4ccc(OC)cc4)c3n2)cc1,-1.1%,-1.8%
COCCCNC(=O)c1cc(-c2ccc(OC)cc2)nc2ccccc12,83.3%[activator],28.1%
Cc1ccc(C(=O)Nc2ccc(S(=O)(=O)O)c3cc(S(=O)(=O)O)cc(S(=O)(=O)O)c23)cc1NC(=O)c1cccc(NC(=O)Nc2cccc(C(=O)Nc3cc(C(=O)Nc4ccc(S(=O)(=O)O)c5cc(S(=O)(=O)O)cc(S(=O)(=O)O)c45)ccc3C)c2)c1,-12.0%[11.5 µM],-7.7%
CC(=O)Nc1sc(C)c(C)c1C#N,5.9%,4.6%
C=C(C)COc1ccc2c(=O)c(Oc3ccc(C(=O)OC)cc3)coc2c1,50.1%[activator],-5.3%
O=C(O)c1ccc(NC(=O)c2cc(-c3ccco3)nc3ccccc23)cc1,26.6%,-7.9%
CCC(C)NC(=O)c1ccc2c(c1)nc1n2CCCCC1 (centres undefined),87.0%[activator],-6.3%
CN1CCN(c2oc(COc3ccc(F)cc3)nc2C#N)CC1,6.3%,-13.1%
CSc1ccc(NC(=O)Cn2nnnc2-c2ccccc2F)cc1,-9.8%,8.5%
Cc1ccc(CNC(=O)c2ccc(CS(=O)Cc3ccc(C)cc3)o2)cc1 (centres undefined),-23.7%,-17.6%
Cc1ccc(NC(=O)c2cnc3ccccc3n2)nc1,179.5%[activator],-3.2%
Cc1ccc(C(=O)Nc2cccc(C(=O)OCc3cc(=O)n4c5c(sc4n3)CCCC5)c2)cc1,-23.1%,-14.2%
Cc1nc(SC(C)C(=O)Nc2cccc(C#N)c2)n(CC(C)C)c1C (centres undefined),5.0%,14.4%

# Bioassay records: PubChem BioAssay, National Center for Advancing Translational Sciences (NCATS)
